Assay outcomes (PubChem BioAssay)
VDR inh: Inhibitors of the vitamin D receptor (VDR): qHTS. Potency, µM, without a hit: max response, negative = inhibition, most hits filed as inhibitors. VDR-SRC2-3 peptide fluorescence polarization, 2 h. hit rate 0.93% among 400,000. Vitamin D3 receptor (Homo sapiens), P11473; active = well fitted inhibition curve with a large enough effect; inconclusive = small, poorly fitted or top-dose-only effect, or another doubt; inactive = no such curve, though single readings can be large or run the other way; note: series mostly up to about 120 µM
Target sequence (P11473 whole entry, looked up): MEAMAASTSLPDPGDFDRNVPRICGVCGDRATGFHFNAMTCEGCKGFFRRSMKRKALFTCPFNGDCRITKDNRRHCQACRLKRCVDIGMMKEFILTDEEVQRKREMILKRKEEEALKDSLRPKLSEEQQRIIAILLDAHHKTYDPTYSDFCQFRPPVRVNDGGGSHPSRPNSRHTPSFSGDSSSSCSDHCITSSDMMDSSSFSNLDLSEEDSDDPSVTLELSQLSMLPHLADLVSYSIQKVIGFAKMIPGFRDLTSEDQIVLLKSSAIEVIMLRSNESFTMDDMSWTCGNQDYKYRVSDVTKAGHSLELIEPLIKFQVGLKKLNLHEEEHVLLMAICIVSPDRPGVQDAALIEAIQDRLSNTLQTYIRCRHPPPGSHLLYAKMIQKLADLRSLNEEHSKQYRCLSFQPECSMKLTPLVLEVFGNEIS
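Signal is fluorescence polarization, reporting how far test compounds block the interaction of VDR with the SRC2-3 coregulator peptide after a 2 h room-temperature incubation.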
The depositor's hits bear a star; u = inconclusive; & = joins results of further samples. % is set by controls: 0 for no effect and ±100 for the full control effect; potency is the fitted concentration of half-maximal effect. Some of the compounds tested. The share of hits here may be higher or lower than overall.

SMILES	VDR inh
CCOc1ccc(C(=O)N2CCC(c3ccncc3)CC2)cc1	13.4%
CCOC(=O)C(=O)Nc1ccccc1C(=O)OCC	-3.8%
CCOc1ccc(NC(=O)CCN2C(=O)C3CCCCC3C2=O)cc1OCC (configuration not stated)	-11.8%
COc1ccc(/C=C(/NC(=O)c2cccs2)C(=O)NC(C)(C)C)cc1OC	3.5%
O=C(O)CNC(=O)C12CC3CC(CC(Cl)(C3)C1)C2	-20.5%
O=C(Nc1ccc(F)cc1)C1CCCN(S(=O)(=O)c2ccc(-n3cnnn3)cc2)C1 (configuration not stated)	1.0%
Nc1ccc(O)cc1C(=O)OCC(=O)c1ccc(C2CCCCC2)cc1	-21.5%
CC1=C(C(=O)NCc2ccccc2)C(c2ccc(C)o2)n2ncnc2N1 (configuration not stated)	-3.8%
O=S(=O)(NC1=NCCC1)c1cccc(NS(=O)(=O)c2ccc(OC(F)(F)F)cc2)c1	-23.4%
CCc1nnc(NC(=O)c2sc3nc4c(cc3c2N)CCCCCC4)s1	-5.0%
CCCC(=O)Nc1cc(Cl)ccc1C	-5.0%
Cc1cccc(C(=O)NCc2nnc(SCC(=O)Nc3nnc(C)s3)n2C)c1	-10.7%
COc1ccc(OC)c(NC(=O)c2oc3c(c2C)C(O)CC(C)(C)C3)c1 (configuration not stated)	-5.4%
Cc1ccccc1Nc1c(-c2cccs2)nc2cccc(C)n12	-14.8%
Nc1cccnc1Sc1cc(Cl)c(Cl)cc1Cl	3.5%
CCOc1ccc(OCCOc2ncnc3ccccc23)cc1	9.5%
Cc1ccc(S(=O)(=O)CCC(=O)OCCOc2cccc(Br)c2)cc1	-16.1%
O=C(CSc1nccc(=O)[nH]1)Nc1ccc(N2CCOCC2)cc1	-6.1%
COc1ccccc1-n1c(SC(C)C(=O)NCC2CCCO2)nc2cc(Cl)ccc2c1=O (configuration not stated)	-0.5%
COc1cc(C(C(=O)NCC2CCCO2)N(C(=O)Cn2nnc3ccccc32)c2ccc(C(C)=O)cc2)ccc1O (configuration not stated)	15.3%
S=c1[nH]nc(-c2ccc(Cl)cc2)n1-c1cccnc1	-21.4%
COc1ccc(S(=O)(=O)NCc2csc(C)n2)cc1	5.5%
Cn1nnnc1NCc1c(F)cccc1Cl	-3.4%
O=C(N/N=C/c1cn(-c2ccccc2)nc1-c1ccc(F)cc1)c1ccc2c(c1)OCO2	1.9%
CCC(C)NC(=O)CSc1c2c(nc3ccccc13)CCCC2 (configuration not stated)	-13.3%
COc1ccc(NC(=O)CC(CC(=O)O)c2cc(OC)c(OC)c(OC)c2)cc1 (configuration not stated)	5.2%
Cc1ccccc1C(=O)N1CCC(C(=O)Nc2ccc3c(c2)OCO3)CC1	-0.7%
CC(=O)Nc1ccc(N2C(=O)c3ccc(C(=O)Nc4nnc(SCc5ccc(F)cc5)s4)cc3C2=O)cc1	12.3%
O=C(Nc1ccc2oc(-c3ccccc3)nc2c1)c1ccco1	-8.5%
N#Cc1ccccc1OCC(=O)OCC(=O)c1c[nH]c2ccccc12	17.3%
COc1cc(NC(=O)c2cc(-c3cccs3)on2)c(OC)cc1Cl	-0.1%
COc1ccc(-c2ccc(=O)n(CC(=O)NCc3ccco3)n2)cc1	5.7%
COc1ccc(NC(=O)N(C)C[C@H]2Oc3ccc(NC(=O)Nc4ccc(C(F)(F)F)cc4)cc3C(=O)N([C@H](C)CO)C[C@@H]2C)cc1	8.4%
COc1ccc2c(c1)c(=O)oc1cc(OCC(=O)N3CCCC(C)C3)ccc12 (configuration not stated)	3.5%
Cc1ccc(-n2ncc(C(=O)Nc3ccc4c(c3)OCCO4)c2C2CCN(C(=O)OC(C)(C)C)CC2)cc1	5.2%
CC(=O)Nc1ccc(NC(=O)CCCCCN2C(=O)c3ccccc3C2=O)cc1	20.0%

An excerpt from above in order of the VDR inh value, falling:
SMILES	VDR inh
CC(=O)Nc1ccc(NC(=O)CCCCCN2C(=O)c3ccccc3C2=O)cc1	20.0%
CC(=O)Nc1ccc(N2C(=O)c3ccc(C(=O)Nc4nnc(SCc5ccc(F)cc5)s4)cc3C2=O)cc1	12.3%
COc1ccc(NC(=O)N(C)C[C@H]2Oc3ccc(NC(=O)Nc4ccc(C(F)(F)F)cc4)cc3C(=O)N([C@H](C)CO)C[C@@H]2C)cc1	8.4%
COc1ccc(-c2ccc(=O)n(CC(=O)NCc3ccco3)n2)cc1	5.7%
Cc1ccc(-n2ncc(C(=O)Nc3ccc4c(c3)OCCO4)c2C2CCN(C(=O)OC(C)(C)C)CC2)cc1	5.2%
COc1cc(NC(=O)c2cc(-c3cccs3)on2)c(OC)cc1Cl	-0.1%
Cc1ccccc1C(=O)N1CCC(C(=O)Nc2ccc3c(c2)OCO3)CC1	-0.7%

(listing goes on)
SMILES	VDR inh
Cc1ccc(Sc2ccncc2S(N)(=O)=O)cc1	-1.9%
COc1cc([N+](=O)[O-])ccc1NC(=O)NN1CCN(C)CC1	21.9%
COc1ccc2oc(C(=O)OCC(=O)NCC3CCCO3)c(C)c2c1 (configuration not stated)	3.5%
O=C(O)c1c(-c2ccccc2)oc2ccc(O)cc12	-26.0%
COc1ccc(NC2c3ccccc3C(=O)N2Cc2ccc3c(c2)OCO3)cc1 (configuration not stated)	-17.1%
ON=C1c2ccccc2-c2ccccc21	18.1%
CCCn1c(=O)c(C(=O)N/N=C/c2ccccc2F)c(O)c2ccccc21	-21.1%
Cc1ccc(NC(=O)CCC(=O)N2CCSc3ccccc32)cc1	-0.1%
O=C(CN1C(=O)c2ccccc2C1=O)Oc1ccc(Cl)cc1	-0.8%
CC(C)(C)OC(=O)C[C@H]1C/C=C\C[C@@H](CC(=O)N(CCO)Cc2ccccc2)C(=O)N2CCC[C@@H]2COC1=O	-22.9%
COc1cc(CNC2CCCC2)cc(OC)c1	-7.8%
Cc1ccnc(NC(=O)CCC(=O)N(CC(=O)NCCc2ccccc2)c2ccc(F)cc2)c1	-5.2%
COc1cc(NC(=O)c2ccccc2Cl)c(OC)cc1NC(=O)CN1CCOCC1	1.8%
CC(NC(=O)/C(C#N)=C/c1ccc([N+](=O)[O-])o1)c1ccccc1 (configuration not stated)	25.1µM*
O=C(Nc1cc(S(=O)(=O)N2CCCC2)ccc1Cl)C1=COCCO1	-13.8%
Cc1ccc(NC(NC(=O)Cc2ccccc2)C(Cl)(Cl)Cl)cc1 (configuration not stated)	16.5%
COc1cccc2c(=O)n(CC(=O)N3CCc4ccccc43)ccc12	-14.1%
CC(C)(C)C(=O)CC1(O)C(=O)N(Cc2ccccc2)c2ccccc21 (configuration not stated)	-10.1%
Cc1ccc(CNC(=O)Cc2ccc(NC(=O)N3CCSc4ncccc43)cc2)cc1	15.2%
CCOC(=O)CNC(=O)CN1C(=O)CCS(=O)(=O)c2ccccc21	3.2%
CCCNC(=O)C/C(C)=N/NC(=O)COc1ccc(C)cc1Br	-2.8%
O=C(Nc1cc(C(F)(F)F)cc(C(F)(F)F)c1)c1cc(Cl)ccc1O	2.7%&-13.0%
COc1cc(/C=C2/CC(C)OC2=O)c([N+](=O)[O-])cc1OC (configuration not stated)	1.4%
O=C(CN1C(=O)C2C3C=CC(C3)C2C1=O)Nc1ccc2c(c1)OCCO2 (configuration not stated)	0.7%
CCOC(=O)c1ccc(OC)c(OC)c1Cl	-15.6%
COc1ccc(N(CC(=O)NCCc2ccccc2)C(=O)c2csnn2)cc1	-17.0%
COc1ccc(C)cc1NC(=O)C1CCN(S(=O)(=O)c2ccc3c(c2)NC(=O)CO3)CC1	-2.2%
Cc1ccc2nc(-c3ccccn3)[nH]c2c1	12.0%
CCCNC(=S)N1CCC(Cc2ccccc2)CC1	1.0%
Cc1ccccc1OCc1nnc(SCc2cc(=O)c3cccc(F)c3[nH]2)n1C	13.1%
CCc1ccc(-c2nc(CS(=O)CC(=O)NCc3ccco3)c(C)o2)cc1 (configuration not stated)	-15.2%
Cc1ccc(C2(c3noc(CN(C)CC4COCCO4)n3)CCCC2)cc1 (configuration not stated)	7.2%
N#CCCn1c(=O)c(-c2cccs2)nc2cnc(Oc3cccc(Cl)c3)nc21	0.4%
CC(c1ccon1)N(C)Cc1cn(C)nc1-c1cccc(Cl)c1 (configuration not stated)	-1.4%
Cc1ccc(NS(=O)(=O)c2ccc(Br)s2)cc1S(=O)(=O)N1CCOCC1	2.8%
Cc1cc(C)n2cc(CSc3nnc(-c4ccccc4)c(-c4ccccc4)n3)nc2n1	4.5%
O=C1CSC(c2cn(-c3ccccc3)nc2-c2cccs2)N1CC1CCCO1 (configuration not stated)	-1.7%
CCOc1cc(/C=C2\SC(=N)N(c3nonc3N)C2=O)ccc1OCC(N)=O	-22.0%
Cc1nc(N)sc1-c1nnc(SCC(=O)Nc2nccs2)n1C	16.7%
Cc1ccc(-c2nc(-c3cc4cccc(OCc5ccccc5F)c4oc3=O)no2)cc1	11.6%
O=C(COC(=O)CNC(=O)c1ccco1)Nc1ccccc1OC(F)F	-7.0%
Nc1nc(SCC(=O)NCCO)nc2sc3c(c12)CCCC3	-1.5%
CSC1=NCCN1C(=O)C(C)Oc1ccccc1 (configuration not stated)	-19.7%
Cc1ccc(C(=O)CSc2ncn[nH]2)cc1	u
COc1ccc(-c2cn(Cc3ccc(C(N)=O)cc3)c(CCN)n2)cc1	-9.3%
COc1ccccc1CNC(=O)C/C(C)=N/NC(=O)Cc1ccccc1	7.0%
CC1(C)CC2(CC(c3ccccc3F)c3cc(Cl)c(O)cc3O2)NC(=S)N1 (configuration not stated)	2.9%
CCOc1ccc(CCNC(=O)COC(=O)c2cc(=O)[nH]c3ccccc23)cc1OCC	3.4%
CC1CC(C)CN(C(=O)c2ccc(-c3ccc([N+](=O)[O-])cc3)o2)C1 (configuration not stated)	u
Cc1cc[n+](CC(=O)c2cccs2)cc1	0.8%
COc1ccc(COC(=O)c2ccc(S(=O)(=O)N3CCC(C)CC3)cc2)cc1	13.0%
Cc1cc(=O)oc2cc(OCCCC[n+]3ccccc3)ccc12	1.9%
CC1(C)CC(=O)c2sc(NC(=O)c3ccc4ncsc4c3)nc2C1	-14.5%
CCOC(=O)NNC(=O)CCn1c2c(c3ccccc31)CCCC2	-15.3%
COC(CNC(=O)C1CC(=O)N(CCc2ccccc2)C1)OC (configuration not stated)	-6.2%
O=C(NCN1CCN(c2ccccn2)CC1)c1cnccn1	6.3%
COc1ccc2cc(C(=O)NCc3ccc4c(c3)CCN4C(=O)c3ccc(F)cc3)[nH]c2c1	6.6%
O=C(CCN1C(=O)/C(=C\c2cccs2)SC1=S)NC1=NCCS1	-1.2%
CCOc1ccc(N(CC(=O)NC2CCCC(C)C2C)S(=O)(=O)c2c(C)noc2C)cc1 (configuration not stated)	-6.7%
CC(C)CN1CCC(=O)N([C@H](COc2ccccc2)Cc2ccccc2)CC1	11.9%

Fetched one by one from the list above:
SMILES	VDR inh
COc1ccc(COC(=O)c2ccc(S(=O)(=O)N3CCC(C)CC3)cc2)cc1	13.0%
O=C(NCN1CCN(c2ccccn2)CC1)c1cnccn1	6.3%
COc1ccc2cc(C(=O)NCc3ccc4c(c3)CCN4C(=O)c3ccc(F)cc3)[nH]c2c1	6.6%
CCOc1ccc(N(CC(=O)NC2CCCC(C)C2C)S(=O)(=O)c2c(C)noc2C)cc1 (configuration not stated)	-6.7%
Cc1cc(=O)oc2cc(OCCCC[n+]3ccccc3)ccc12	1.9%

Next section.
SMILES	VDR inh
COc1ccc(S(=O)(=O)Nc2nnc(C(C)C)s2)cc1	-14.0%
CCOC(=O)c1cccc(NC(=O)C2CCN(S(=O)(=O)c3cn(C)cn3)CC2)c1	2.0%
CCC(C)n1nnc2c(=O)oc3ccccc3c21 (configuration not stated)	11.8%
CN(C(=O)c1ccc(NC(=O)Cc2cccc(NC(=O)C3CCN(C(=O)C4CCCCC4)CC3)c2)cc1)C1CCCC1	u
COc1ccc(C(=O)c2c(C)oc3ccc(O)cc23)cc1	3.0%
O=C(/C=C/c1ccc(S(=O)(=O)N2CCOCC2)cc1)OCC(=O)c1ccc([N+](=O)[O-])cc1	7.9%
Cc1ccc(Nc2nnc(SC3CCOC3=O)s2)cc1 (configuration not stated)	-9.8%
CCOc1ccccc1NC(=O)c1c(NC(=O)c2ccccc2)sc2c1CCCC2	-6.2%
CCOC(=O)N1CCC(NC(=O)c2cc(C(=O)Nc3ccc(S(=O)(=O)N4CCCCC4)cc3)ccc2CO)CC1	-8.2%
COc1ccc2[nH]cc(CCNc3cc(-c4ccccc4C(F)(F)F)ncn3)c2c1	-21.9%
O=C1/C(=C/c2cccs2)SC(=S)N1c1cccc(O)c1	1.2%
O=[N+]([O-])c1cc2c(cc1Br)CCN2	2.6%
Cc1nc(N2CCN(Cc3ccccc3)CC2)c(C#N)c2c1COC(C)(C)C2	15.1%
Cn1c(=O)c2c(nc(N/N=C/c3ccc(OC(=O)c4ccco4)cc3)n2Cc2ccc(F)cc2)n(C)c1=O	-5.8%
c1nc2ccc(Cc3ccc4nc[nH]c4c3)cc2[nH]1	-13.2%
CCCCn1c(N)c(N(CCOC)C(=O)c2c(C)noc2C)c(=O)[nH]c1=O	-12.2%
Cc1ccccc1C(=O)Nc1ccccc1C(=O)NCc1ccccc1	7.2%
Cc1ccccc1NC(=O)NNC(=O)COc1ccc2ccccc2c1	-5.2%
CCCOc1cc(C)c(S(=O)(=O)NCc2cccs2)cc1C	9.6%
C[C@H](NC(=O)c1nc[nH]c1C(=O)N[C@@H](C)C(=O)OC(C)(C)C)C(=O)OCc1ccccc1	-16.8%
Cc1c(C)n2c(SCC(=O)N3CCCCC3)nnc2[nH]c1=O	0.6%
Cc1csc(SCC(=O)NCc2ccccc2Cl)n1	7.3%
COc1ccccc1N1CCN(S(=O)(=O)c2c(C)sc3ncn(CC(=O)N(C)c4ccc(Cl)cc4)c(=O)c23)CC1	-8.9%
CC(C)NC(=S)N/N=C/c1ccc2c(c1)OCCO2	-3.8%
COc1cc(NC(=O)c2cccnc2)c(Cl)cc1NC(=O)c1ccc(Cl)cc1	-20.8%
CCN1CCN(C(=S)c2ccc(OCC(=O)NCc3ccccc3)cc2)CC1	u
O=C1/C(=C\c2ccco2)SC(=S)N1Cc1ccccc1	4.0%
O=C(NC(=S)N1CCN(CCO)CC1)C12CC3CC(CC(C3)C1)C2	-7.2%
O=c1c(-c2cccc(Cl)c2)c[nH]n1-c1ccccc1	-1.0%
